Bioassay records as filed in PubChem BioAssay.
StopGo FLuc – Primary qHTS Assay for Foot and Mouth Disease Virus Antivirals against NCGC Sytravon and CBC Compound Libraries: Firefly Luciferase Signal; Potency, µM (series often up to 57.5 µM), inactives show at the top dose signal change, negative = less light; 120,000 tested, 0.23% active; HEK cells with a luciferase reporter of 2A StopGo recoding; active = well fitted falling curve with a large enough effect; inconclusive = small, poorly fitted or top-dose-only effect; inactive = no such curve, though single readings can be large or run the other way; also: nearly all actives have a fitted effect of over 60% in size; overnight with compound
StopGo RLuc – Primary qHTS Assay for Foot and Mouth Disease Virus Antivirals against NCGC Sytravon and CBC Compound Libraries: Renilla Luciferase Signal. HEK cells with a luciferase reporter of 2A StopGo recoding. Potency, µM (top dose mostly 57.5 µM), for the others: at the highest dose signal change, negative = less light. 120,000 tested, 0.32% active. AID 1745857, 2022; active means well fitted falling curve with a large enough effect; inconclusive means small, poorly fitted or top-dose-only effect; inactive means no such curve, though single readings can be large or run the other way; also: nearly all actives have a fitted effect of over 55% in size; overnight with compound
Starred values were filed as active, the others as inactive; ? = inconclusive; [ ] = dose if it differs, or a comment. % is scaled to controls: 0 for no effect and ±100 for the full control effect; potency is read from the fitted curve at half-maximal effect.

item | molecule | StopGo FLuc | StopGo RLuc
1 | CC(C)Cn1nc(C(=O)OCC(=O)Nc2ccccc2Cl)c2ccccc2c1=O | 9% | -1%
2 | CCc1nn2c(=O)c(S(=O)(=O)Nc3ccc(C(C)C)cc3)c(C)nc2s1 | -6% | 20%
3 | Cc1c(NC(=O)CN(c2ccc(Cl)cc2)S(C)(=O)=O)c(=O)n(-c2ccccc2)n1C | 7% | -3%
4 | CCOC(=O)C1=C(C)N(CC(C)C)C(=O)NC1c1ccccc1OC(F)F (stereo not given) | 1% | 5%
5 | COc1ccccc1/C=C/c1nc2ccccc2n1C(C)C | 187%[activator] | 43%[activator]
6 | COc1ccc(Cl)cc1N(C)C(=O)Cn1cnc2sc(C)c(S(=O)(=O)N3CCN(c4ncccn4)CC3)c2c1=O | -1% | 13%
7 | O=C(CSC1=Nc2ccccc2CS1)NC1CCCC1 | 0% | 13%
8 | O=C(Nc1nc2ccc(OC(F)F)cc2s1)c1ccccc1Cl | 146%[activator] | -3%

Compound profiles (already shown). Order of screens: StopGo FLuc | StopGo RLuc
Entry for CCc1nn2c(=O)c(S(=O)(=O)Nc3ccc(C(C)C)cc3)c(C)nc2s1 = -6% | 20%
Entry for Cc1c(NC(=O)CN(c2ccc(Cl)cc2)S(C)(=O)=O)c(=O)n(-c2ccccc2)n1C = 7% | -3%
Entry for CCOC(=O)C1=C(C)N(CC(C)C)C(=O)NC1c1ccccc1OC(F)F (stereo not given) = 1% | 5%

Molecules shown so far that have four or more nitrogen atoms (3):
item | molecule | StopGo FLuc | StopGo RLuc
2 | CCc1nn2c(=O)c(S(=O)(=O)Nc3ccc(C(C)C)cc3)c(C)nc2s1 | -6% | 20%
3 | Cc1c(NC(=O)CN(c2ccc(Cl)cc2)S(C)(=O)=O)c(=O)n(-c2ccccc2)n1C | 7% | -3%
6 | COc1ccc(Cl)cc1N(C)C(=O)Cn1cnc2sc(C)c(S(=O)(=O)N3CCN(c4ncccn4)CC3)c2c1=O | -1% | 13%

Next part
item | molecule | StopGo FLuc | StopGo RLuc
9 | Cc1ccc(CC(=O)NCc2nc(-c3cccc(C)c3)no2)cc1 | -16% | -15%
10 | COc1ccc2c(C)c(CC(=O)Nc3nnc(C(C)C)s3)c(=O)oc2c1OC | 15% | 1%
11 | COc1ccc(Cc2nc(P(=O)(OC)OC)c(NCc3ccc4c(c3)OCO4)o2)cc1 | 3% | 6%
12 | Nc1nc(CN2CCN(C(=O)c3ccc(F)cc3)CC2)nc2ccccc12 | 12% | -10%
13 | CC(=O)N1CCCc2cc(S(=O)(=O)N3CCN(c4ccc(F)cc4)CC3)ccc21 | -26% | -27%
14 | CC(C(=O)Nc1sc2c(c1C#N)CCCCC2)n1cnc2c1c(=O)n(C)c(=O)n2C (stereo not given) | ? | 14µM*
15 | Cc1nc(-c2ccccc2)ccc1C(=O)N1CCS(=O)(=O)c2ccccc21 | ? | ?
16 | Oc1ccc(O)c(C2C[C@@H]3CC[C@H]2C3)c1 (stereo not given in full) | 0% | 52%[activator]
17 | COc1ccccc1NC(=O)c1ccc(S(=O)(=O)N(C)c2ccccc2OC)cc1 | -9% | -7%
18 | C[C@@H](CN1CC(=O)NC(=O)C1)N1CC(=O)NC(=O)C1 | 0%[11.5 µM] | 13%
19 | COC(=O)c1c(C)oc2ccc(N(C(=O)c3ccncc3)S(=O)(=O)c3cc(C)c(C)cc3C)cc12 | ? | -7%
20 | CCOc1ccccc1NS(=O)(=O)c1ccc(C(C)C)cc1 | 2% | 22%
21 | COCCCNc1nc2ccccc2nc1NS(=O)(=O)c1ccc(F)cc1 | -6% | 8%
22 | CCOc1ccc(NC(=O)C2CCN(c3nc4ccccc4[nH]3)CC2)cc1 | -5% | -19%
23 | O=C(NN=C1CCCC1)c1nc(-c2ccccc2)n(-c2ccccc2)n1 | 4% | -1%[1.06 µM]
24 | CCN(Cc1ccncc1)C(=O)C(CO)c1ccccc1 (stereo not given) | -3%[11.5 µM] | -9%
25 | CNC(=O)CCNC(=O)c1ccccc1-c1ncc(-c2ccc(F)cc2)o1 | 11% | 9%
26 | CCOc1ccc(NC(=O)CSc2nc3ccsc3c(=O)n2C(C)CC)cc1 (stereo not given) | -12% | -4%
27 | COc1cc(/C=C2\Oc3cc(OS(=O)(=O)c4ccc(C)cc4)ccc3C2=O)cc(OC)c1OC | 0% | 10%
28 | COc1cc(C)ccc1OCCSc1nc2ccc(NC(=O)c3ccco3)cc2s1 | -27% | -12%
29 | Cc1ccc2c(=O)cc(C(=O)N(Cc3ccccc3)Cc3ccco3)oc2c1 | -9% | 0%
30 | Cc1ccc(S(=O)(=O)Nc2cccc(-c3ccc(N4CCC(C)CC4)nn3)c2)s1 | 148%[activator] | 81%[activator]
31 | CN(C)CCCn1c(=O)n(C)c(=O)c2[nH]cnc21 | -11% | -13%
32 | Cn1c(-n2cccc2)c(-c2c(-c3ccc(F)cc3)[nH]c3c2c(=O)n(C)c(=O)n3C)c(=O)n(C)c1=O | -1% | -12%
33 | COc1cc(OC)cc(-c2cc3nc(C)c(CCC(=O)NCc4ccccc4)c(C)n3n2)c1 | ? | -12%
34 | COc1ccc(-n2nnc(-c3nsc(NC(=O)c4cccc(C)c4)n3)c2C)cc1OC | -9% | 36%[activator]
35 | Cc1ccc(NC(=O)C2=Cc3cc(Cl)ccc3OC=C2)cc1 | -3% | -5%
36 | Cc1c(C2=CCN(S(=O)(=O)c3ccc(Br)cc3)CC2)c2ccccc2n1CC(=O)N1CCCC1 | -2% | 7%
37 | Cc1ccc(NC(=O)Cn2c(=O)n(-c3ccc(C)cc3)c(=O)c3ccc(C(=O)NCc4ccccc4Cl)cc32)cc1 | -4% | 9%
38 | CN(C)C(=S)SCC(=O)NCCNC(=O)CSC(=S)N(C)C | 6% | -4%[1.06 µM]
39 | COc1ccc(-c2noc(CCC(=O)NCc3ccc(OC)cc3OC)n2)cc1 | 79%[activator] | 47%[activator]
40 | O=C(Cn1nc(-c2cccc([N+](=O)[O-])c2)c2ccccc2c1=O)Nc1ccc(F)cc1 | -12% | -25%
41 | COc1ccc(C(CNC(=O)c2ccc(C#N)cc2)N2CCOCC2)cc1OC (stereo not given) | 2% | -7%
42 | COc1cccc(CNC(=O)c2ccc3c(Cl)c4c(nc3c2)CCCC4)c1 | 8% | 4%
43 | O=C(Nc1cccc(Cl)c1Cl)c1cc2nc(-c3ccc4c(c3)OCO4)cc(C(F)(F)F)n2n1 | -15% | -5%
44 | FC(F)(F)c1cccc(N2CCN(Cc3ncc(-c4ccccc4)o3)CC2)c1 | 29% | -8%
45 | O=C(NCCc1cccnc1)C12CC3CC(CC(C3)C1)C2 | 2% | 6%
46 | CCn1c(C)c(C)c2cc(C(=O)NCC(C)c3ccccc3)ccc21 (stereo not given) | 48% | 146%[activator]
47 | CCN(C(=O)CSc1nc2ccccc2n1CC(=O)Nc1ccccc1C)c1ccccc1 | -13% | 18%
48 | CC1CCCN(S(=O)(=O)c2ccc3c(c2)CCN3C(=O)CCC(=O)O)C1 (stereo not given) | -9% | 6%
49 | Cc1ccc(N/N=C/C=C/c2ccccc2[N+](=O)[O-])c(C)c1 | 73%[activator] | 18%
50 | CC(=O)N1CCc2cc(S(=O)(=O)Nc3ccc4c(c3)CCN4S(C)(=O)=O)ccc21 | -28% | 119%[activator]
51 | O=C(CSc1nc2c(c(=O)n1CCc1ccccc1)SCC2)Nc1cccc2ccccc12 | 9% | -2%
52 | CC(C)N(C(=O)CN1CC=C(c2c[nH]c3ccccc23)CC1)C(C)C | 23% | 3%
53 | COc1ccc(C2C(C#N)=C(N)Oc3n[nH]c(C)c32)cc1COc1cc(C)c(Cl)c(C)c1 (stereo not given) | -5% | -5%
54 | Cc1ccc(C2=C(O)C(=O)N(Cc3ccccn3)C2c2ccccc2)cc1 (stereo not given) | 12% | 31%[activator]
55 | CCOC(=O)c1c(NC(=O)c2cc(-c3ccccc3)on2)sc2c1CCCC2 | -19% | 0%
56 | COc1ccccc1CNC(=O)CCn1c(=O)c2ccccc2n(CC(=O)Nc2ccc(C)cc2)c1=O | 3% | -1%
57 | COc1cc(/C=C/c2nc(N)nc(-c3ccccc3O)n2)cc(OC)c1OC | 12% | 64%[activator]
58 | Cc1c2cnn(CC(=O)N3CCCCC3)c(=O)c2c(C)n1Cc1ccc(Cl)cc1 | 12% | 2%
59 | Cc1ccc(N(CC(=O)NCCSc2ccccc2)S(=O)(=O)c2ccc(F)cc2)cc1 | -22% | -16%
60 | CN(C)S(=O)(=O)c1cccc(Nc2nc(CN3CCOCC3)nc3sc4c(c23)CCCC4)c1 | 4% | 16%
61 | COCCNC(=O)CCn1nc(-c2ccccc2)c2ccccc2c1=O | 2% | 1%
62 | CC(NC(=O)c1[nH]c2ccccc2c1Cl)c1cccc(F)c1 (stereo not given) | -22% | -28%
63 | Cc1n[nH]c(C)c1C(=O)CC1(O)C(=O)N(CCc2ccccc2)c2ccc(Br)cc21 (stereo not given) | 1% | 55%[activator]
64 | COc1ccc(C(=O)N2CCC(C(=O)Nc3ccc(OC)cc3OC)CC2)cc1 | -12% | -4%

Values by screen from the entries so far.
Nos. 28–35 in StopGo RLuc, in turn: -12%, 0%, 81%[activator], -13%, -12%, -12%, 36%[activator], -5%

(further entries)
item | molecule | StopGo FLuc | StopGo RLuc
65 | CCc1nc2sc3c(NC4CCCCC4)ncnc3c2c2c1COC(C)(C)C2 | 24% | 18%
66 | N#Cc1ccc(CSc2ccc3c(c2)OCCCO3)cc1 | 177%[activator] | 6%
67 | CCCn1c2ccccc2c2cnn(CC(=O)NCCc3ccc(OC)cc3OC)c(=O)c21 | -9% | -2%
68 | CCOC(=O)c1nc(N2CCN(c3ccc(F)cc3)CC2)c2c(C)noc2n1 | -17% | -14%
69 | CCCCSc1nnc2c(n1)OC(c1ccc(C)s1)Nc1ccccc1-2 (stereo not given) | 54%[activator] | -8%
70 | Cn1c(=O)[nH]c(=O)c2c1nc(N1CCN(CC(N)=O)CC1)n2Cc1ccc(Cl)c(Cl)c1 | 1% | 3%
71 | CCc1ccc(NC(=O)c2oc3c(c2C)-c2[nH]ncc2CC3)cc1 | 119%[activator] | 0%
72 | CN(C)CCCNc1oc(-c2ccccc2F)nc1C#N | -5% | -10%
73 | CCCCCNC(=O)C(C#N)c1nc2ccccc2nc1N1CCCC1 (stereo not given) | -12% | -15%
74 | CC(C)=C[C@@H]1[C@@H](C(=O)OCc2coc(Cc3ccccc3)c2)C1(C)C | 2%[11.5 µM] | 2%
75 | CC(=O)Nc1ccc(NC(=O)Cn2cnc3c2c(=O)n(C)c(=O)n3C)cc1 | -10% | -9%
76 | CCOc1ccc(S(=O)(=O)N(CC(=O)Nc2cccc(C)c2)c2ccccc2)cc1 | -8% | 9%
77 | CC1CN(C)C(C)(C)CC1O (stereo not given) | 1% | 3%
78 | Cc1ccc(C(=O)NC(NC(C)C)C(Cl)(Cl)Cl)cc1 (stereo not given) | 20% | 15%
79 | COc1ccc(NC(=O)C(CC(C)C)NC(=O)C2CCCCC2)cc1 (stereo not given) | 0% | 49%[activator]
80 | COc1cc(C(=O)Nc2ccccc2)nc2ccc(Cl)cc12 | 0% | -11%
81 | Cc1ccc(C)c(/C(O)=C2\C(=O)C(=O)N(c3nnc(C)s3)C2c2ccccc2)c1 (stereo not given) | 86%[activator] | 37%[activator]
82 | COc1ccc(CNC(=O)Cn2ncc3c(=O)oc4ccccc4c32)c(OC)c1 | -14% | -3%
83 | Cc1ccc2nc(CO)[nH]c2c1 | 21% | 8%
84 | O=C(c1cc2ccccc2oc1=O)N(Cc1ccc(Cl)cc1)C1CCS(=O)(=O)C1 (stereo not given) | 205%[activator] | 22%
85 | Cc1ccccc1C(=O)NCCc1csc(-c2cccc(F)c2)n1 | 16% | -14%
86 | CN(CC(=O)N1CCN(c2oc(-c3ccco3)nc2C#N)CC1)Cc1cccc(Cl)c1Cl | ? | ?
87 | Oc1ccccc1-c1nc(-c2cccs2)c(-c2cccs2)[nH]1 | ? | ?
88 | Cc1cc(NC(=O)COC(=O)c2nn(C(C)C)c(=O)c3ccccc23)no1 | 61%[activator] | 47%[activator]
89 | COCCn1c(SCc2ccc(Br)cc2)nnc1-c1cccc(C)c1 | -12% | -13%[1.06 µM]
90 | COc1ccc(CNC(=O)Cn2ccc3cc(S(=O)(=O)N4CCCC4)ccc32)c(OC)c1 | 5% | 0%
91 | Cc1ccc(C(C)C)c(OC2(c3ccccc3)OC(=O)c3ccccc32)c1 (stereo not given) | ? | ?
92 | CCSC1=N/C(=C\c2cccc3ccccc23)C(=O)S1 | -15% | -6%
93 | O=C(/C=C/c1ccc2ccccc2n1)NCc1ccccc1 | 14% | ?
94 | CCOc1ccc(NC(=O)CN(c2ccc(Cl)cc2C)S(=O)(=O)c2ccccc2)cc1 | ? | 49%[activator]
95 | COc1ccc(S(=O)(=O)Nc2nc3ccccc3nc2Nc2cc(C)ccc2C)cc1 | 2% | 0%
96 | Cc1ccc(-n2ncc(C(=O)NCCN3CCc4ccccc4C3)c2C2CCN(C(=O)OC(C)(C)C)CC2)c(C)c1 | -17% | 13%
97 | COc1ccc(OC)c(CCNC(=O)c2ccc(N3C(=O)CCS3(=O)=O)cc2)c1 | 0% | 0%
98 | CSc1nc2c(c(=O)[nH]1)C(c1cccc(F)c1F)CC(=O)N2 (stereo not given) | 15% | -4%
99 | COc1ccc(-c2c(C)oc3cc(OS(C)(=O)=O)ccc3c2=O)cc1OC | ? | ?
100 | Cc1cccc(CNCCc2c[nH]c3ccccc23)c1 | -2% | 45%[activator]
101 | Cc1ccc(C(=O)NCC(=O)NCCc2c[nH]c3ccccc23)cc1 | -7% | 9%
102 | COc1ccc(C(=O)NCCn2cc(SCC(=O)Nc3ccc(F)cc3)c3ccccc32)cc1 | -30% | 55%[activator]
103 | CN(C(=O)c1cn(C)c2ccccc12)C1CCS(=O)(=O)C1 (stereo not given) | -5% | -13%
